Screening data as filed in PubChem BioAssay.
PINK1 expr mod: PINK1 expression modulation | PINK1 immunofluorescence, high-content cytometry, 24 h | Potency, µM (top dose mostly 76.6 µM), without a hit: at the top dose activation (PINK1 increase), most hits filed as activators | 0.2% of 410,000 active; active = well fitted activation curve with a large enough effect; inconclusive = small, poorly fitted or top-dose-only effect; inactive = flat fitted curve, though single readings scatter; cell line not stated here;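 further: potency means the concentration at half of the fitted maximal effect; % of control where 0% means no effect; nearly all actives have a fitted effect of over 65% in size; a mitochondrial uncoupler was the plate control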
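Measures PINK1 amount and localization on or inside mitochondria by immunofluorescence. Stable cells get compounds at 5 concentrations for 24 hours before fixation and staining; CCCP controls included.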
TRPML1 blocker: blocks the human TRPML1 channel. 0.02% of 390,000 active. TRPML1-inducible cells, Ca2+ dye fluorescence, FDSS; stronger effect = lower value; inhibition of EC80 agonist-evoked calcium signal. activity change, negative = inhibition, % (test concentration not listed). AID 624415. Q9GZU1; in the data active means activity change below about -50%; inconclusive means about -30% to -50%; inactive means above about -30%;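 further: stimulus is agonist 54-4 at its EC80 concentration; on the % scale 0 is the no-effect control and ±100 the full control effect; compound concentration not given in the record; the text of the record puts the active cut at -80%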
Target sequence (Q9GZU1 whole entry, looked up): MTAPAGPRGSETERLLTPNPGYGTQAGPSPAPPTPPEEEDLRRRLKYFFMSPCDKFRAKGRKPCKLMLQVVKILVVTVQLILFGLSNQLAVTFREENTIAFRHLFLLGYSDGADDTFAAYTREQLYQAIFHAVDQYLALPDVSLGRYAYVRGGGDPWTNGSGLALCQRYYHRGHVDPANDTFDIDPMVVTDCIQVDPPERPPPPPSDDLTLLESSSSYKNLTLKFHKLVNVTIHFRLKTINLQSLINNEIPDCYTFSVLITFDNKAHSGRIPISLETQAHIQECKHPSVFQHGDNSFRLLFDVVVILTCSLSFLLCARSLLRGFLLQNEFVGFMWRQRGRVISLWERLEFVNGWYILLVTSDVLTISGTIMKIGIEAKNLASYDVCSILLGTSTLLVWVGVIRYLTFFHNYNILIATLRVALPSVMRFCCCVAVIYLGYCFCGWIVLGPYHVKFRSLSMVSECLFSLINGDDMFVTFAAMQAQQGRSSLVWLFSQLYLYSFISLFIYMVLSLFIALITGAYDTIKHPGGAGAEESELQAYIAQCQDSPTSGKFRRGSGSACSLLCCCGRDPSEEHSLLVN
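TRPML1-DL cells, Tet-induced overnight (~16 h, 37 °C) at 1,500 cells/well, were loaded with Ca8 no-wash dye plus quencher for 45-90 min at room temperature. Compounds were pinned during FDSS kinetic reading; agonist 54-4 at EC80 (4 uM final) then added.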
TRPML1 ag: agonists of human TRPML1 channel. Q9GZU1. TRPML1-expressing cells, Ca2+ dye fluorescence, FDSS; host cell line not named in the record; reference of the full effect not given here. activation, % (no concentration beside the values). 0.12% of 410,000 active. AID 624414; in the data active = activation above about 50%; inconclusive = about 30% to 50%; inactive = below about 30%; further: 0% is about no effect; the text of the record puts the active cut at 80%
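Tet-induced TRPML1-DL cells, 1,500 per well, cultured overnight, were loaded with a no-wash Ca2+ dye for 45–90 min. Calcium fluorescence was recorded on the FDSS for 110 s after compound addition, before the EC80 agonist (4 uM 54-4) was added.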
D2 agonist: human D2 receptor agonism in beta-arrestin assay; DiscoveRx PathHunter D2 beta-arrestin, luminescence, 90 min; 100% = 57 uM dopamine signal; activation, % (concentration not given with the values); 0.084% of 360,000 active; in the data active = activation above about 40%; inconclusive = about 15% to 40%; inactive = below about 15%; further: compound concentration not given in the record; the text of the record calls up to 30% inactive
Target sequence (P14416 whole entry, looked up): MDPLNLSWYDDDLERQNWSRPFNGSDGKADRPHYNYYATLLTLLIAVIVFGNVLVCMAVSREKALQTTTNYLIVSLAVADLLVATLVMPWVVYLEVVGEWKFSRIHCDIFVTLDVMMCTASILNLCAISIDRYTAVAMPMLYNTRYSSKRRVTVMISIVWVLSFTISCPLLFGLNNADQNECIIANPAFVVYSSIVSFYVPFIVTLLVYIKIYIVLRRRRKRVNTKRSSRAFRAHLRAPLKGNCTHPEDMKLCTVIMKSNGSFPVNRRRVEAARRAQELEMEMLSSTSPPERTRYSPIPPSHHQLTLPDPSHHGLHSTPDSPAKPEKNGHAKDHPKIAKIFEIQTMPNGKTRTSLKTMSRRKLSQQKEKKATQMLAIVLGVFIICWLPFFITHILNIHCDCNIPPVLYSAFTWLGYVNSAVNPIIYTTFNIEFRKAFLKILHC
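DiscoveRx PathHunter D2 beta-arrestin cells (2,100/well) attached overnight, then compound-stimulated 90 min at 37 C in HBSS/10 mM HEPES/0.1% Tween-20 buffer; beta-galactosidase complementation read by luminescence after 1 h at ambient temperature. Dopamine 57 uM final (EC100) as control.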
Six1-Eya2 blk: Six1/Eya2 interaction inhibition | Q15475+O00167 | AlphaScreen GST-Six1/His-Eya2 binding, biochemical; stronger effect = lower value; control for the full effect not named in the record | activity change, % (concentration not given with the values) | 0.56% of 360,000 active | AID 651725; in the data active = activity change below about -65%; inconclusive = about -30% to -65%; inactive = above about -30%; further: on the % scale 0 is the no-effect control and ±100 the full control effect
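AlphaScreen luminescence read after one hour at 37 °C in darkness. Pin-transferred compounds met GST-Six1 and His-Eya2 protein (5X stock 250 nM/500 nM) plus glutathione donor and Ni-chelate acceptor beads (5X, 50 ug/mL).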
D2 potentiator: positive allosteric modulators of human D2 dopamine receptor; AID 624464; DiscoveRx D2 beta-arrestin cells, luminescence, 90 min; 100% = 57 uM dopamine signal; 0.23% of 360,000 active; potentiation, % (test concentration not listed); active = potentiation of 50% or more; inconclusive = 30% to 50%; inactive = 30% or less;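 further: compound concentration not given in the record; tested on top of an EC20 dose of dopamine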
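D2 cells co-treated with compound plus 50 nM dopamine (EC20) for 90 min at 37 deg C to detect potentiation. Beta-arrestin recruitment was read as enzyme-fragment luminescence after 1 h at ambient temperature. Full response was set by 57 uM dopamine.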
Starred values were filed as active, the others as inactive; ? = inconclusive; / = no result given; & = joins results of further samples; [ ] = another dose, or the depositor's remark. Compounds were not picked by outcome. Share with any hit: about 1%.

SMILES | PINK1 expr mod | TRPML1 blocker | TRPML1 ag | D2 agonist | Six1-Eya2 blk | D2 potentiator
O=C1NC(=O)C(c2ccccc2)(c2ccc(O)cc2)N1 (stereo unspecified) | 2.5% | 7.6 | 3.9 | 5.0 | -2.7 | -1.1
O=C(NCCc1ccccc1)C(=O)NCC(c1ccco1)N1CCOCC1 (stereo unspecified) | 0.2% | / | / | -7.0 | -0.1 | -4.5
COc1ccc(-c2csc(NC(=O)Cc3ccccc3F)n2)cc1OC | -1.1% | 10.7 | 0.1 | 0.4 | -14.8 | -3.4
COCCN1C(=O)C(O)=C(C(=O)c2cccs2)C1c1ccccc1 (stereo unspecified) | -0.1% | -1.3 | -0.2 | -3.3 | 21.3 | -26.9
CCc1ccc(CN(C)C(=O)CC2C(=O)NCCN2Cc2ccoc2)cc1 (stereo unspecified) | 0.3% | -4.3 | 0.9 | -3.4 | 4.6 | 1.0
COC(=O)c1sccc1OC(C)C(C)=O (stereo unspecified) | 1.1% | ? | 0.0 | -4.1 | -0.6 | -6.1
O=C(NCc1ccccc1Cl)C1CCN(c2cnccn2)CC1 | 0.8% | -8.9 | -0.3 | -5.9 | -2.4 | -2.0
COc1ccc(S(=O)(=O)Oc2ccc3ccccc3c2)cc1 | 3.9% | 38.0 | 0.6 | -3.6 | 16.6 | -31.5
COC(=O)Cn1c(=NC(=O)C2CC2)sc2c(C)cc(C)cc21 | 2.2% | 7.7 | 1.0 | -1.0 | 1.1 | -0.8
CSc1nn(CCc2ccncc2)c(=S)s1 | -1.5% | -6.2 | 3.1 | -2.6 | -6.3 | -9.0
CN(C)S(=O)(=O)c1ccc(NC(=S)NC(=O)c2cccs2)cc1 | 0.2% | -0.4 | 0.4 | -7.0 | -8.5 | -4.3
Cc1ccc(NC(=O)CCc2nnc(SCC(=O)Nc3ccccc3C)n2C)cc1Cl | / | -2.5 | -0.5 | 1.2 | 7.6 | -5.2
Cc1cc(C(F)F)n2nc(C(=O)Nc3cccc(C(F)(F)F)c3)nc2n1 | 0.0% | -7.1 | -1.5 | 1.0 | -2.5 | 23.4
Cc1ccc2c(=O)cc(C(=O)Nc3ccc(S(=O)(=O)Nc4ncccn4)cc3)oc2c1C | -0.4% | -21.1 | 1.0 | / | / | /
CCCN(CC(=O)Nc1cc(Cl)ccc1Cl)C(=O)c1ccc(N2CCCC2=O)cc1 | 1.2% | 38.8 | 3.6 | -1.9 | -3.5 | -18.4
COCCN(C(=O)CSc1nc2ccccc2c(=O)n1CC(C)C)c1c(N)n(Cc2ccccc2)c(=O)[nH]c1=O | 0.8% | -3.4 | -0.5 | 5.0 | -1.2 | -2.9
CC(=O)Oc1ccc(C(=O)Nc2ccc(C3(C#N)CCCC3)cc2)cc1 | -0.1% | -14.3 | 0.2 | -0.4 | -1.9 | -15.7
COc1ccc(C)cc1NC(=O)CSc1nnc(-c2ccco2)n1N | -2.2% | -11.5 | 0.2 | -0.8 | 6.2 | -18.9
CC(C)c1ccc(NC(=O)C2CCC(CNS(=O)(=O)c3ccc4c(c3)CCCC(=O)N4)CC2)cc1 (stereo unspecified) | 3.3% | 33.0 | 0.3 | / | / | /
COc1ccc(-c2[nH]c(-c3ccc(C)cc3)nc2SCC(=O)NCc2ccco2)cc1OC | 3.4% | 23.0 | 0.3 | -5.2 | 5.4 | -6.6

The last 2 records of the part before come first, to join the parts:
SMILES | PINK1 expr mod | TRPML1 blocker | TRPML1 ag | D2 agonist | Six1-Eya2 blk | D2 potentiator
CC(C)c1ccc(NC(=O)C2CCC(CNS(=O)(=O)c3ccc4c(c3)CCCC(=O)N4)CC2)cc1 (stereo unspecified) | 3.3% | 33.0 | 0.3 | / | / | /
COc1ccc(-c2[nH]c(-c3ccc(C)cc3)nc2SCC(=O)NCc2ccco2)cc1OC | 3.4% | 23.0 | 0.3 | -5.2 | 5.4 | -6.6
CCOC(=O)/C=C/C(=O)OCC(=O)NC(c1ccccc1)c1ccccc1 | -0.7% | -13.1 | 0.9 | -4.9 | -5.4 | -7.6
NC(=O)CNC(=O)[C@@H]1CC2(CC(c3cccc(Br)c3)=NO2)CN1C(=O)c1ccc(Br)cc1 (stereo partly specified) | 0.6% | -6.3 | 0.0 | 2.6 | -9.2 | -2.4
Cc1c(CNC2CCCCC2)c(C(=O)O)c(C)n1Cc1ccc(Cl)cc1 | 2.0% | 3.4 | 1.0 | / | / | /
O=C(Nc1ncc(C(F)(F)F)cc1Cl)c1ccc(S(=O)(=O)N2CCOCC2)cc1 | -0.1% | -12.2 | 0.3 | 7.1 | 4.3 | -2.3
Cc1c(NC(=O)Nc2ccccc2)cccc1[N+](=O)[O-] | 3.9% | 4.8 | 1.8 | -1.2 | 5.4 | -18.3
CN(Cc1ccccc1)C(=O)c1ccc(Nc2nc(CN)cs2)nc1 | -0.2% | 8.6 | -0.2 | -3.5 | ? | -12.8
O=C(Nc1ccnn1C1CCN(CC(O)CO)CC1)C1CCCC1 (stereo unspecified) | -0.1% | 41.6 | 1.5 | -1.1 | 4.0 | 12.5
Nc1[nH]c(=O)[nH]c(=O)c1N=Cc1ccccc1 | -4.3% | -6.5 | 3.4 | -3.8 | -14.9 | -8.6
COc1ccc(N2CCN(C(=O)c3cc4cc(Cl)ccc4[nH]3)CC2)cc1 | 9.5% | -2.5 | 0.0 | 3.9 | -0.2 | -9.8
O=C(/C=C/c1ccccc1Cl)Nc1ccc(Cl)cn1 | 4.9% | 5.5 | 1.0 | -0.7 | -4.0 | -9.1
COCCNC(=O)c1ccc(C)c(S(=O)(=O)Nc2ccc(C)cc2)c1 | -1.4%[38.3 µM] | 3.0 | -0.6 | -0.9 | 1.5 | -2.4
COc1cc(/C=C2/C(=N)N3OC(C)=CC3=NC2=O)ccc1OCCOc1ccc(C)cc1 | 17.2% | 30.2 | 0.0 | -1.1 | 12.3 | -3.1
COc1ccccc1CNC(=O)COC(=O)CNS(=O)(=O)c1ccc(C)cc1 | -1.7% | 52.4 | 1.8 | -2.9 | 5.7 | -11.8
Cc1ccc(-c2cc3nc(-c4ccccc4)cc(NCCCO)n3n2)cc1 | 3.1% | 2.5 | -0.7 | 2.5 | 6.2 | -4.5
O=C1C(=O)N(CNc2cccnc2)c2ccccc21 | 4.0% | -2.1 | 0.3 | -9.0 | 2.1 | -20.8
COCCn1c(Cc2ccccc2)nnc1SCc1nc2ccccc2c(=O)[nH]1 | 14.3% | 1.5 | -0.4 | -3.7 | -0.5 | -2.2
COc1cc(C2=NOC(C(=O)N3CCOCC3)C2)cc(OC)c1OC (stereo unspecified) | 5.2%[38.3 µM] | -13.4 | 2.4 | -2.8 | 1.1 | 2.8
CCCOP(=O)(OCCC)C1(Nc2ccc(C)cc2)CCCCC1 | -0.7% | -15.9 | 1.0 | -3.6 | -3.7 | -8.6
COC(=O)C(CCSC)NC(=O)CNS(=O)(=O)c1ccc(Br)cc1 (stereo unspecified) | -2.9% | -3.6 | 1.3 | -2.0 | 0.4 | -16.9
Fc1ccc(NC(=S)NCCc2ccccn2)cc1 | -2.0% | 12.1 | 1.7 | 0.2 | 9.1 | -4.0

Some of the entries so far, with values under each structure:
Values run as follows: PINK1 expr mod	TRPML1 blocker	TRPML1 ag	D2 agonist	Six1-Eya2 blk	D2 potentiator
> Cc1ccc(-c2cc3nc(-c4ccccc4)cc(NCCCO)n3n2)cc1
→ 3.1%	2.5	-0.7	2.5	6.2	-4.5
> O=C1C(=O)N(CNc2cccnc2)c2ccccc21
→ 4.0%	-2.1	0.3	-9.0	2.1	-20.8

Additional records.
SMILES | PINK1 expr mod | TRPML1 blocker | TRPML1 ag | D2 agonist | Six1-Eya2 blk | D2 potentiator
O=C(c1csc2ccccc12)n1cccn1 | 10.5%[38.3 µM] | -10.1 | 0.6 | 0.5 | 9.2 | 0.8
CCOc1ccc(OCc2cccc(C(=O)N3CCCC3)c2)cc1 | / | 6.2 | 1.9 | 0.8 | 18.1 | -8.5
Cc1ccc(Cl)cc1NC(=O)Cn1c(=O)c(CNc2ccccc2)cc2cc3c(cc21)OCCO3 | 10.7% | -8.4 | 0.4 | / | / | /
COc1ccccc1-n1cc2c([N+](=O)[O-])cc([N+](=O)[O-])cc2n1 | 6.0% | / | / | ? | 44.4 | -4.4
COc1cc(OC)c(N(C)C(=O)c2cc3c(s2)-c2ccccc2OC3)cc1Cl | 0.0% | -24.8 | 0.3 | / | / | /
CCOc1ccc(NC(=O)CCNS(=O)(=O)c2cccs2)cc1 | 3.6% | -12.1&47.9 | -0.3&-0.1 | -0.5 | 6.8 | -9.9
Cc1onc(-c2ccccc2Cl)c1C(=O)Nc1ccc(N2CCOCC2)cc1 | -0.2% | -0.4 | -1.2 | -0.5 | -5.7 | -8.7
Cc1ccc(NC(=O)CN(C)C(=O)CSc2nnc(NC(C)C)s2)cc1 | -0.7% | 12.2 | 0.2 | -1.9 | 3.9 | 1.1
Cc1ccc(S(=O)(=O)Oc2cc(N)c3c(n2)CCC3)cc1 | 0.3% | -6.7 | 0.8 | -1.5 | -4.8 | -5.1
CSc1nnc(C2CCCN(CC(=O)Nc3ccccc3N3CCOCC3)C2)n1C(C)C (stereo unspecified) | -0.7% | 5.9 | 1.5 | -1.8 | 1.1 | -3.7
O=C(Nc1ccc2ccccc2c1)c1cccc2ccccc12 | ? | -1.7 | 1.6 | 7.9 | 5.6 | 1.4
Cc1cccnc1NC(=O)CN1C(=O)c2ccccc2S1(=O)=O | 1.3% | 3.7 | 0.7 | -1.5 | 9.5 | 5.7
O=C(Nc1ccc(S(=O)(=O)Nc2nccc(C3Cc4ccccc4C(=O)O3)n2)cc1)c1ccccc1 (stereo unspecified) | 6.8%[38.3 µM] | 18.6 | 2.0 | -1.5 | -1.1 | -7.4
CC(C)OC(=O)C1Cc2ccccc2CN1S(=O)(=O)c1cccs1 (stereo unspecified) | 0.9% | 12.6 | 0.1 | -1.9 | -1.5 | -10.8
Cc1csc(=O)n1CCC(=O)OCC(=O)Nc1cc([N+](=O)[O-])ccc1Cl | -0.9% | -13.1 | -0.3 | -3.0 | -0.6 | -14.4
CCN(CC(=O)Nc1ccccc1C(=O)OC)S(=O)(=O)c1ccccc1 | / | 14.9 | 0.9 | -3.5 | 6.8 | 16.7
COCCn1c(C)cc(O)c(C(c2ccccc2OC)N2CCN(c3ccccc3)CC2)c1=O (stereo unspecified) | -0.3% | -2.2 | 1.0 | / | / | /
Cc1ccc(C)c(NC(=O)Cn2ncc3c(C)n(Cc4ccc(F)cc4)c(C)c3c2=O)c1 | 1.8% | 1.4 | 0.6 | / | / | /
O=C(Cn1c(=O)c2ccccc2n(CC(=O)Nc2ccc(F)cc2)c1=O)NCCc1ccccc1 | 7.5% | -9.9 | 1.8 | / | / | /
CC1CCN(CC(C)OC(=O)c2ccc3c(c2)OCCO3)CC1 (stereo unspecified) | 2.1% | 25.9 | 4.6 | -0.2 | 0.9 | -9.2
CCN(CC(=O)Nc1ccc(NC(C)=O)cc1)C(=O)c1cccc(Oc2ccccc2)c1 | 4.7% | -6.7 | -0.2 | -5.4 | -2.5 | -6.4
